Rango dissoc inh = qHTS Assay for Inhibitors of RanGTP induced Rango (Ran-regulated importin-beta cargo) - Importin beta complex dissociation; Snurportin-1 (Homo sapiens) + GTP-binding nuclear protein Ran (Homo sapiens) + Importin …; Biochemical FRET Rango-importin beta, RanGTP-induced dissociation; Potency, µM (top dose mostly 46.1 µM), without a hit: at the top dose activity change, negative = inhibition; 340,000 compounds, 0.071% hits; AID 540253, 2011; active means falling FRET ratio curve, often poorly fitted, with flat reads before Ran was added; inconclusive means other falling curves, or compound fluorescence or quenching; inactive means flat or rising ratio curve;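 note: potency is the fitted concentration of half-maximal effect; % of control where 0% means no effect; nearly all actives have a fitted effect of over 45% in size; -100% = wells without RanGTP and RCC1; the record marks most hits as doubtful in a second field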
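Recombinant Rango FRET biosensor (EYFP–snurportin 1 IBB–cerulean CFP10) at 0.1 uM premixed with 0.25 uM importin beta in PBS, 1 mM DTT, 0.02% Tween-20, 0.1% BSA. Compound added 5 min; RanGTP-RCC1 (0.6 uM Ran, 2 mM GTP, 0.2 uM RCC1) then triggers release, read at 45 min.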
Rango complex inh = qHTS Assay for Inhibitors of Rango (Ran-regulated importin-beta cargo) - Importin beta complex formation; Rango CFP/YFP FRET sensor + importin beta, 45 min; Potency, µM (doses to about 92.2 µM), inactives show top-dose inhibition of complex formation; 340,000 compounds, 0.031% hits; AID 540263, 2011; active = rising FRET ratio curve, often small or poorly fitted; inconclusive = mostly compound fluorescence or quenching in the first reads; inactive = flat curves in all reads;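 note: potency is the fitted concentration of half-maximal effect; 0% = DMSO wells and 100% = buffer wells lacking importin beta; nearly all actives have a fitted effect of over 15% in size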
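FRET biosensor (snurportin 1 IBB flanked by EYFP and cerulean), 50 nM, with compound 5 min, then 0.125 microM importin beta in PBS, 1 mM DTT, 0.02% Tween-20, 0.1% BSA. CFP/YFP ratio read after 45 min at room temperature; pre-read flags interference.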
GLA inh pH 4.5 = qHTS Assay for Inhibitors of Human alpha-Galactosidase at pH 4.5 | purified enzyme, 4-MU-alpha-Gal fluorescence, pH 4.5 | activity change, negative = inhibition, % at 105 µM | 230,000 tested, under 10 active; inconclusive = small, poorly fitted or top-dose-only inhibition, or a rising curve; inactive = flat fitted curve, though single readings scatter; no compound was filed as active;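 note: 0% = full activity with enzyme and -100% = basal without enzyme; dose as in the result columns while the protocol names 77 µM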
Target sequence (P06280 whole entry, looked up): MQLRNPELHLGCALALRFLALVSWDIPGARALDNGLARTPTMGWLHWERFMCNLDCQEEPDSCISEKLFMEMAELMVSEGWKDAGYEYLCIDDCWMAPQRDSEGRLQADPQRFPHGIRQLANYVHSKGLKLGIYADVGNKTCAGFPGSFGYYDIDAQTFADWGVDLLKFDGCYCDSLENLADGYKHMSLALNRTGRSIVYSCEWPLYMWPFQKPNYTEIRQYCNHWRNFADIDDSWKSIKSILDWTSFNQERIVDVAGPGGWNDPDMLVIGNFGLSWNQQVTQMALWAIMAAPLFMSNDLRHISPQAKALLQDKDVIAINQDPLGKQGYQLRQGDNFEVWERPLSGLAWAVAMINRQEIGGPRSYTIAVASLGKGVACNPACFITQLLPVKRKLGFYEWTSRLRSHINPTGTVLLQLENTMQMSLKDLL
miR-21 reporter = qHTS Assay for Modulators of miRNAs and/orActivators of miR-21. HeLa miR-21 FLuc reporter, luciferase, 48 h. Potency, µM (titrated, usually from 38.3 µM), without a hit: at the highest dose reporter change, positive = more light. 340,000 tested, under 10 active; active = well fitted rising curve with a large enough effect; inconclusive = small, poorly fitted or top-dose-only effect; inactive = no such curve, though single readings can be large or run the other way;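 note: % of control where 0% means no effect; miR-21 action dims this reporter so a rising signal means less miR-21 action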
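HeLa cells stably expressing CMV-driven firefly luciferase with a downstream miR-21 binding sequence, endogenously expressing miR-21, were treated with titrations (up to about 40uM final) for 48 hours at 37 degree Celsius. Luciferase luminescence was read after lysis.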
Active calls of the source: *; u = inconclusive; x = no result given. Only part of the results is shown; rates above refer to the full screens.

SMILES | Rango dissoc inh | Rango complex inh | GLA inh pH 4.5 | miR-21 reporter
O=C(CSc1n[nH]c(-c2ccco2)n1)Nc1ccccc1Cl | -4% | 0.1% | x | -2%
Cc1cc(C)c(OCCCCCNCCO)c(C)c1 | 1% | 1.4% | -3 | 1%
COc1ccc(CCN2C(=O)C3C4C=CC(C3C2=O)C2C(=O)N(CCc3ccc(OC)c(OC)c3)C(=O)C42)cc1OC (configuration not stated) | -20% | -3.2% | 8 | 10%
CSC1=C(C#N)C(c2cccc(Br)c2)CC(=O)N1 (configuration not stated) | 0% | -0.8% | -9 | -9%
C/C(O)=c1/ccc2cccc3nc(C)nc1c23 | u | u | -3 | -4%
c1ccc(CSc2nnc(-c3ccncc3)o2)cc1 | 10% | 0.4% | -4 | -3%
COC(=O)c1ccc(C)c(NC(=O)CN(c2cc(OC)ccc2OC)S(C)(=O)=O)c1 | -18% | 2.4% | 7 | 3%
Cc1cccc(N(CC(O)CN2CCCC2)S(=O)(=O)c2ccccc2)c1 (configuration not stated) | -2% | 0.1% | x | -4%
Cc1cccn2c(CNCCc3ccccn3)c(C(=O)N3CCOCC3)nc12 | u | 2.4% | x | 0%
CS(=O)(=O)N(CC(O)Cn1c2ccccc2c2ccccc21)c1cccc2ccccc12 (configuration not stated) | -4% | -0.8% | -4 | 25%
O=C(CSc1ccc(-c2ccccc2)nn1)NC1CCCC1 | -6% | 1.9% | x | -5%
COc1ccc(C)cc1NC(=O)CSc1nnc(-c2ccc(Br)cc2)o1 | -3% | -7.0% | 3 | -11%
C=CCn1c(SCC(=O)c2[nH]c(C)c(C(C)=O)c2C)nnc1-c1ccncc1 | -2% | -0.1% | 0 | 5%
Cc1cccc(OCC(=O)NCc2n[nH]c(=O)c3ccccc23)c1 | 2% | 1.8% | x | x
Nc1nc(SCC(=O)NN(c2ccccc2)c2ccccc2)n[nH]1 | 0% | -4.0% | 0 | -5%
O=C(NC1CCCCC1)c1ccc(CS(=O)Cc2ccc(Cl)cc2)o1 (configuration not stated) | 0% | -0.3% | x | -2%
CC(C)CC(C(=O)NC1CCCCC1)N(Cc1cccs1)C(=O)c1snc(C(N)=O)c1N (configuration not stated) | -2% | 0.6% | -2 | 16%
O=C(COC(=O)c1ccc2ccccc2n1)NC1CCCCC1 | 1% | 5.0% | x | x
Cc1cccc(N2CCN(S(C)(=O)=O)CC2)c1C | -8% | 0.2% | 5 | -4%
CCn1c(CC(=O)Nc2ccc(F)cc2)nnc1SCC(=O)N1CCOCC1 | -3% | -0.7% | x | -6%
O=[N+]([O-])c1cc(/C=N/n2c(-c3ccncc3)n[nH]c2=S)ccc1Cl | 4% | 3.1% | 5 | 1%
Cc1ccccc1NC(=O)C1=CC=CN2CCS(=O)(=O)N=C12 | -9% | -0.5% | x | x
COc1cccc(Nc2ncccc2C(=O)Nc2ccccc2)c1 | -17% | 2.5% | -30 | -7%
C#CC[N+](C)(C)CCN1C(=O)C2C(c3ccccc3)C=CC(c3ccccc3)C2C1=O (configuration not stated) | -11% | 0.8% | 4 | -3%
CN(c1ccccc1)C(c1ccc(F)cc1)c1nnnn1C1CCCC1 (configuration not stated) | -1% | -2.6% | 1 | -6%
CCOC(=O)c1cc2c(=O)n3ccccc3nc2n(CCOC)c1=NC(=O)C(C)(C)C | u | u | u | 0%
COc1ccc(OCCNC(=S)Nc2cccc3ccccc23)cc1 | 1% | 0.0% | -2 | -17%
Cc1ccc(NC(=O)CC2=NC(=O)C(CC(=O)Nc3ccccc3F)S2)cc1 (configuration not stated) | -3% | 0.1% | 5 | -25%
O=C(c1cccc(N2C(=O)C3C4C=CC(C4)C3C2=O)c1)N1CCCCCC1 (configuration not stated) | -3% | 2.9% | -1 | -5%
CC(C)NC(=O)c1ccc2c(c1)N(Cc1ccccc1)C(=O)C(C)(C)O2 | -8% | 10% | x | 11%
CCN(CC)c1ccc(NC(=O)c2cc3c(OC)cccc3[nH]2)cc1 | -6% | -0.3% | x | -10%
COc1ccc(C(=O)/C=C/Sc2nc3ccccc3o2)cc1 | -3% | 3.0% | -21 | -19%
COc1ccc(-c2oc(/N=C/N3CCOCC3)c(C#N)c2-c2ccc(OC)cc2)cc1 | -7% | -1.2% | 6 | 5%
CN1CC(=O)N2C(c3ccc(Cl)cc3)c3[nH]c4ccccc4c3C[C@H]2C1=O (some centres not stated) | -5% | 0.3% | x | 19%
CNC(=O)NC(=O)C(OC(=O)c1cccc(S(=O)(=O)N2CCCCC2)c1)c1ccccc1 (configuration not stated) | 0% | -0.1% | 9 | -10%
Nc1cc(C(=O)O)ccc1Nc1ccccc1 | -5% | u | 14 | -22%
Cc1ccc(C=Nc2ccccc2C#N)s1 | 6% | -0.3% | 2 | -3%
Oc1ccc(-c2nc3ccccn3c2NCc2ccc3c(c2)OCO3)cc1 | u | -0.5% | 10 | -11%
O=S(=O)(NC1c2cccc3cccc(c23)C1N1CCNCC1)c1ccc(Cl)cc1 (configuration not stated) | 24% | 0.2% | 6 | u
COCCNC(=O)COC(=O)/C=C/c1c(C)nn(Cc2ccc(Cl)cc2Cl)c1Cl | 1% | 3.2% | 0 | 15%
CCN1CCN(c2ccc(S(=O)(=O)N3CCCCC3)cc2NC(=O)/C=C/c2ccc(OC(F)F)cc2)CC1 | 11% | 0.4% | x | x
CC1CC(C)(C)NC(=S)N1CCCC(=O)NCc1ccccc1 (configuration not stated) | -21% | -1.1% | -8 | -6%
COc1ccc(C(CNC(=O)c2ccc(C)c(S(=O)(=O)N3CCOCC3)c2)N2CCCC2)cc1 (configuration not stated) | 10% | 0.2% | x | x
CN(C)S(=O)(=O)c1ccc(NC(=O)C2COc3ccccc3O2)cc1 (configuration not stated) | -4% | 7.8% | 2 | -14%
CCn1c(CNC(=O)c2ccccc2)nc2ccccc21 | 36% | 1.8% | x | x
COc1ccc(CNC(=O)OCc2nccnc2C(=O)Nc2ccc(Br)cn2)cc1 | 6% | -0.3% | x | -7%
NC(=S)Nc1ccc(Cl)c(Cl)c1 | 4% | 4.5% | 4 | u
Nc1nc(SCc2ccccc2Cl)[nH]c(=O)c1-c1ccccc1 | -24% | -5.5% | 1 | -38%
O=C(Nc1ccccc1)c1nc[nH]c1C(=O)N1CCN(c2ccccc2)CC1 | -6% | -0.9% | x | x
Cc1cc(Cn2nc(-c3ccccc3)cc2C(=O)NCc2cccs2)on1 | -7% | 2.6% | x | x

More records
SMILES | Rango dissoc inh | Rango complex inh | GLA inh pH 4.5 | miR-21 reporter
COC(=O)C(NC(=O)C(NC(=O)C1CCC(C)CC1)C(C)C)C(C)C (configuration not stated) | 2% | 0.7% | x | x
Cc1ccc(Cn2cc(/C=N/Nc3ccc([N+](=O)[O-])cn3)c3ccccc32)cc1 | -21% | u | 2 | -34%
COc1cc(NC(=O)C23CC4CC(C2)CC(n2cnc([N+](=O)[O-])n2)(C4)C3)cc(OC)c1 | 17% | -2.9% | -7 | 0%
CC(C)(C)C(=O)/C=c1\[nH]c(=O)/c(=C\c2ccccc2F)s1 | -17% | u | -3 | 1%
O=C(CCS(=O)(=O)c1ccc(Br)cc1)Nc1ccccc1Cl | 8% | -1.9% | x | -3%
Cc1ccc(S(=O)(=O)N2CCOCC2)cc1NC(=O)CSc1ccccn1 | -10% | -1.0% | 0 | -15%
CCOc1cccc(NC(=O)CSc2nncn2N)c1 | 2% | 1.0% | 1 | -8%
CC(NC(=O)COc1ccccc1F)C1CC2CCC1C2 (configuration not stated) | -1% | -1.8% | -1 | -12%
CN(C)/C=C(/C(=O)c1ccc(Cl)cc1)S(C)(=O)=O | 0% | 9.9% | 5 | -1%
N#C/C(=C\c1ccccc1)C(=O)N1CCN(c2ccccc2F)CC1 | 2% | 2.9% | x | 6%
c1ccc2c(COn3nnc4ccccc43)cccc2c1 | 3% | 0.4% | 3 | -62%
CC(=O)Nc1nc2ccc(C(=O)NCCOC(=O)C3CCCCC3)cc2s1 | -24% | 5.2% | -4 | -7%
COc1ccc(C(=O)Nc2cc(S(=O)(=O)N3CCCC3)ccc2Cl)cc1 | 7% | -4.2% | x | x
O=C(NCCCc1ccccn1)C1CCC(=O)N(Cc2cccc(F)c2)C1 (configuration not stated) | -10% | 1.1% | x | 1%
CC(C)Oc1cccc(C(=O)C2CCCN(Cc3ccc(Oc4ncccn4)cc3)C2)c1 (configuration not stated) | 0% | -0.2% | -9 | 15%
O=C1/C(=C/c2cccs2)Sc2ccccc21 | 18µM* | u | 9 | -10%
CCn1c(=S)sc2c(=O)n(CC(=O)Nc3ccccc3C(F)(F)F)c(C)nc21 | 14% | 4.9% | x | 1%
CCC(CC)n1c(C)cc(=O)n1C(CC)CC | -1% | 0.0% | x | x
CN(C)c1ccc(C=C2C=Cc3ccccc32)cc1 | -25% | -2.1% | x | x
CC1CC(C)CN(C(=O)COC(=O)c2cc3ccccc3cc2O)C1 (configuration not stated) | 18% | 0.2% | 3 | -8%
Cc1ccc(S(=O)(=O)N/N=C\c2cn(CC(N)=O)c3ccccc23)cc1C | 37% | -4.3% | x | 1%
CCC(C)(C)C1CCC(NC(=O)c2ccc(S(=O)(=O)N3CCOCC3)cc2)CC1 (configuration not stated) | 28% | 0.1% | x | x
CSc1ccccc1OCc1cc(C(=O)NCc2ccc(C)s2)no1 | -8% | 4.8% | x | -30%
COc1ccc(C(=O)NC2CCCCCC2)cc1S(=O)(=O)N1CCCc2ccccc21 | 0% | -1.3% | -5 | -2%
CCOc1ccc(NC(=O)CN(C)C(=O)c2cccnc2Sc2ccc(Cl)cc2)cc1OCC | 2% | 0.2% | x | x
COC(=O)[C@H](CC(C)C)NC(=O)c1cc2c(cn1)[nH]c1ccccc12 | 16% | 2.2% | x | -1%
CC(=O)O[C@H]1C[C@@]2(C)[C@@H](C[C@@H](O)[C@H]3[C@@]4(C)CC[C@@H](O)[C@@H](C)C4CC[C@@]32C)/C1=C(\CCC=C(C)C)C(=O)O (some centres not stated) | -8% | -7.8% | 4 | -48%
CCc1cc(C(=O)c2ccc(C)cc2)c(NC(=O)CCl)s1 | -12% | 4.5% | -3 | 10%

Compound activity: PubChem, National Center for Advancing Translational Sciences (NCATS)
